High-throughput results from PubChem BioAssay.
MT1-MMP act inh: blockers of MT1-MMP proenzyme processing, primary screen, HT1080 RFP-PRO-GFP cells, GFP/RFP fluorescence. 0.061% of 360,000 active. GFP/RFP ratio change, % at 20 µM. GFP/RFP ratio fluorescence, overnight; percent of plate control window, DMSO zero;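 active = GFP/RFP ratio change of at least 30% with cell ATP level not reduced by more than half and red fluorescence within 50% of control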; note: strong numbers were not always called active
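Material – HT1080 RFP-PRO-GFP cells · Control set – DMSO wells and RFP-L50D-GFP cells · Incubation – overnight cell settling, then overnight compound exposure, 37 °C, 5% CO2 · Compound dosing – single-point 20 µM compound, 1% DMSO · Read-out – GFP/RFP fluorescence ratio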
PABP polyA inh: PABP poly(A) RNA binding inhibitors, primary screen, biochemical, fluorescence polarization, uHTS. AID 2014, 2009. inhibition, % at 35 µM. 1% of 290,000 active. Polyadenylate-binding protein 1 (Homo sapiens), P11940;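 active = 50% or more with normal probe brightness, or confirmed in later tests; inconclusive = above 50% with abnormal brightness, or retests that disagree; inactive = below 50% or failed in later tests; about a fifth of its hits are not listed in these tables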;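 note: calls also rest on retests at 20 µM and on dose response follow-up; controls were probe without protein and protein plus probe with vehicle; some compounds called inactive have numbers as strong as hits; many hits fall short of the cut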
Target sequence (P11940 whole entry, looked up): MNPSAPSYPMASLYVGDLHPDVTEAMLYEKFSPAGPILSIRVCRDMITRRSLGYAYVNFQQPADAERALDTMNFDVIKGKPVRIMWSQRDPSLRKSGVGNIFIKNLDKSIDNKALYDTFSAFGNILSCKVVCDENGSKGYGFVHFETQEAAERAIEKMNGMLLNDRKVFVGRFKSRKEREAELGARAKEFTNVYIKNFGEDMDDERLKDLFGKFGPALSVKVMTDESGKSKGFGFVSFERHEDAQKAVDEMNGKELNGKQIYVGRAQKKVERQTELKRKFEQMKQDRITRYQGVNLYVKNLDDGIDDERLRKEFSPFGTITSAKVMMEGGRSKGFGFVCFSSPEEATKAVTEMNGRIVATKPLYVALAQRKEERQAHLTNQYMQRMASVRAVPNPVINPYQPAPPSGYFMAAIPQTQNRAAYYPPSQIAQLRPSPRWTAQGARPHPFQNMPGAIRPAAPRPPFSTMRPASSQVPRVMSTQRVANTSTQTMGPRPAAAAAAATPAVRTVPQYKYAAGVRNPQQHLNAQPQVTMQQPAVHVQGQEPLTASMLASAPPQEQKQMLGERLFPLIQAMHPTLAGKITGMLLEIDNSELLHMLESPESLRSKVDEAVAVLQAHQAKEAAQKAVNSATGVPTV
HIV Env fusion: inhibitors of HIV-1 Env-driven cell-cell fusion, primary screen, HeLa-JRFL effector, CEM21 target cells, luciferase; inhibition, % at 12.3 µM; 1.1% of 360,000 active; AID 651610, 2012;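 active = mean replicate inhibition score of at least 50 and every replicate individually at or above 50; inconclusive = only one of the two criteria met; inactive = mean below 50 and not all replicates reaching 50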;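 note: 0% = plate neutral controls and 100% = maraviroc near 300 nM; one replicate is shown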
Yeast UUG start: modulators of yeast start codon fidelity, primary screen, whole organism, S. cerevisiae, single point, plate reader. S. cerevisiae UUG-firefly luciferase reporter, luminescence/redox ratio. 0.13% of 350,000 active. activity score, % at 18.7 µM. AID 602363, 2012;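 active = replicate mean at a twofold rise or more, about +100% in these data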;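 note: firefly luciferase made from a UUG start codon reports start codon fidelity; reporter light over untreated wells divided by growth signal over untreated wells; some hits fall short of that in this replicate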
eIF4H FP inh: human eIF4H binding inhibitors, primary screen, translation initiation inhibitor project, biochemical, uHTS, fluorescence polarization | Eukaryotic translation initiation factor 4H (Homo sapiens), Q15056 | eIF4H fluorescence polarization binding assay | inhibition, % at 35 µM | 0.94% of 290,000 active | AID 2012, 2009;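 active = 50% or more with normal probe brightness, or confirmed in later tests; inconclusive = above 50% with abnormal brightness, or retests that disagree; inactive = below 50% or failed in later tests; about a fifth of its hits are not listed in these tables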;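 note: calls also rest on retests at 20 µM and on dose response follow-up; 0% = protein and probe with vehicle and 100% = probe without protein; strong numbers were not always called active; many hits fall short of the cut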
CSC inhib: cancer stem cell viability inhibitors, primary screen, luminescence; inhibition, % at 7.5 µM; cancer stem cell-like cells viability; 1.1% of 300,000 active;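 active = mean at 75% or more and at least half the replicates too; inconclusive = mean and replicates disagree; tested in HMLE shEcad cells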;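 note: 0% = median of negative and 100% = median of positive control wells; the first replicate is given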
Rce1 inhib: yeast Rce1p protease inhibitors, primary screen, biochemical, fluorescence, cell-free homogeneous | CAAX prenyl protease 2 (Saccharomyces cerevisiae (strain ATCC 204508 / S288c)), Q03530 | yeast membranes, quenched prenylated peptide cleavage fluorescence | calls only | 0.27% of 290,000 active | AID 2563, 2010;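 active = fall in fluorescence gain of 50% or more versus controls, with final raw signal at or below 3038400; inconclusive = same 50% fall but final raw signal above 3038400; inactive = fall in fluorescence gain under 50%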;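 note: plate controls were neutral control wells for no effect and wells lacking membranes for full effect; tested at 10 µM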
Target sequence (Q03530 whole entry, looked up): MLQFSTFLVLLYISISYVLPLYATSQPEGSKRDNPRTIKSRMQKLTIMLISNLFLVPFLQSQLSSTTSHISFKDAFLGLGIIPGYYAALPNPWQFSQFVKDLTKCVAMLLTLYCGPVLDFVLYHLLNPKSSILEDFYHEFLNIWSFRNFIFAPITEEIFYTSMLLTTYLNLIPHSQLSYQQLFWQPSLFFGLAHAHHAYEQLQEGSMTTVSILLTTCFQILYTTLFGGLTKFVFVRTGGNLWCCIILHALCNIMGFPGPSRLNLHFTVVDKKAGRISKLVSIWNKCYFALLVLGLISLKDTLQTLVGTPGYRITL
MT1-MMP act inh RFP: second read-out of MT1-MMP act inh, no call of its own (marks repeat the call); RFP signal change, %; measured here: RFP expression control read;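 0 = vehicle wells; hits needed this value within 50% of zero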
The depositor's hits bear a star; i = inactive; ? = inconclusive; . = not tested or not shown. Not all compounds are listed, so the mix of outcomes need not match the whole.

Every second line gives: MT1-MMP act inh, MT1-MMP act inh RFP, PABP polyA inh, HIV Env fusion, Yeast UUG start, eIF4H FP inh, CSC inhib, Rce1 inhib
CNC(=S)NNC(=O)c1cc(-c2cccnc2)nc2ccccc12
→ -1, 4, -2, -80, -18, 6, 3, i
O=C(NCCS(=O)(=O)N1CCN(c2cccc(Cl)c2)CC1)C1CCCC1
→ 0, 2, ., -17, -21, ., -4, i
C#CCOCCOCCOCCNc1nc(N2CCN(C(=O)[C@H](CCCCN)n3cc([C@@H](N)C(C)CC)nn3)CC2)nc(N2CCN(C(=O)[C@H](Cc3ccc(O)cc3)n3cc([C@@H](N)CC(C)C)nn3)CC2)n1 (some centres undefined)
→ 3, 4, 28, -18, 28, 35, ., i
OC(CN1CCN(c2ccc(C(F)(F)F)cn2)CC1)c1ccccc1 (centres undefined)
→ 4, -1, 2, ., -15, -2, 27, i
Cc1ccc(S(=O)(=O)N2CCCC2C(=O)OCc2nc3ccccc3s2)cc1 (centres undefined)
→ -1, 4, 0, ., 2, 9, 10, i
CCOC(=O)c1nn(-c2ccccc2)c2nnc(Cc3ccc(C)cc3)c(=O)n12
→ 0, 8, 3, -17, -1, -5, 2, i
Cc1ccc(OCc2cc(C(=O)NC3CCCCC3)no2)cn1
→ -2, -27, 0, 6, -7, 8, ., i
O=S(=O)(c1ccc(Cl)cc1)N1CCN(C2CCN(Cc3ccccc3)CC2)CC1
→ -3, -1, -5, 10, -21, -4, 70, .
Cc1ccc(S(=O)(=O)NCCNC(=O)c2cc(OCC(F)(F)F)ccc2OCC(F)(F)F)cc1
→ 4, 8, -5, 96*, -12, -5, -5, .
CCCCCCn1c(SCC(=O)NC2CCS(=O)(=O)C2)nc2ccccc2c1=O (centres undefined)
→ 1, 3, ., -3, -21, ., ., .
CC[C@@H]1C/C=C\Cc2ccccc2[C@@H](C(=O)C[C@H](O)CC(C)=O)OC1=O
→ -3, 7, ., 11, -3, ., -7, .
N#Cc1ccc(OCC(=O)OCC(=O)Nc2cc(C(F)(F)F)ccc2N2CCOCC2)cc1
→ -3, 2, 4, -3, ., 6, -10, i
COc1ccc(/C=C/C(=O)NC(=S)NNC(=O)c2cnccn2)cc1
→ 13, -9, -1, -12, ., 6, 98*, i
Fc1ccc(N/N=C/c2ccncc2)c(F)c1
→ -4, -2, -3, -32, -7, -17, 90*, i
O=C(C1CCC(CNS(=O)(=O)c2cccs2)CC1)N1CCN(c2ccc(F)cc2)CC1 (centres undefined)
→ -5, -22, -2, 27, -14, 6, -11, i
N#Cc1ccccc1CSc1ccccn1
→ 0, 2, -9, ., -20, -7, 14, i
CCCNc1c(NS(=O)(=O)c2ccc(C)cc2C)c(=O)oc2ccccc12
→ 2, 0, 7, -1, -15, 5, -17, i
CCOC(=O)CNS(=O)(=O)c1ccc2c3c(cccc13)C(=O)N2CC
→ 5, 0, 1, 2, -13, 0, ., i
CC(=O)CSc1cc(-c2ccccc2)nc2ncnn12
→ -2, -2, -7, 21, ., -4, -16, i
COc1cccc(NC(=S)N2CCN(C)CC2)c1
→ -1, 2, 1, -7, -15, -6, 0, i
O=C(CNC(=O)c1ccc(Cl)cc1)c1ccc(Br)cc1
→ 2, 2, 18, 10, -6, 3, -4, i
Cc1cc(C)c(NC(=O)CN2CCOCCOCCOCCOCC2)c(C)c1
→ -3, 1, ., ., ., ., 1, i
CCC(=O)c1ccc(OCC(=O)OCC(=O)N2CCCc3ccccc32)cc1
→ 5, 5, ., 8, 16, ., -8, i
COc1cc(OC)cc(C(=O)Nc2ccc(C(=O)NCC3CCCO3)cc2)c1 (centres undefined)
→ 4, 0, 4, 9, -11, 7, -27, i
Cc1occc1C(=O)NNC(=O)C1CCCC1
→ 0, -2, -2, -19, -12, -11, -11, i
Cc1csc(NC(=O)c2ccc(N3CCCC3=O)cc2)n1
→ 2, -1, 7, 42, ., 8, 9, i
C/C(=N\NC(=O)c1ccn(C)n1)c1cccc(NC(=O)c2ccncc2)c1
→ 0, 1, 2, 1, -6, -4, -5, i
Cc1ccc(N2C(=O)N(CC(=O)Nc3ccc(C)cc3Cl)C(=O)C2C)cc1 (centres undefined)
→ 1, -4, ., -1, -4, ., ., i
CC(=O)NC1(NC(C)=O)CCN(C)CC1
→ -1, 2, -1, -5, -11, 4, -23, i
CCC(C)(C)n1nnnc1C(C(C)C)N(CCCO)Cc1cc2cc(C)ccc2[nH]c1=O (centres undefined)
→ -5, -2, -11, ., 0, -4, -1, i
COC(=O)c1ccc(CO/N=C2\CCCc3nonc32)cc1
→ -1, -1, 1, -5, -9, -2, 7, i
Cn1c(SCC(N)=O)nnc1-c1ccc(S(=O)(=O)N2CCCC2)cc1
→ -2, 1, 7, -21, -6, 2, ., i
COc1ccc(C(CCN)c2ccc3c(c2)OCO3)cc1 (centres undefined)
→ -1, 2, -4, -12, -7, -6, 14, i
CC1CCN(C(=O)N[C@@H](Cc2ccccc2)C(=O)O)CC1
→ 3, 6, -4, ., -11, -6, -3, i
CCCn1c(SCC(=O)Nc2ccc(S(=O)(=O)N3CCOCC3)cc2)n[nH]c1=O
→ 2, 3, ., -12, -11, ., ., .
COc1ccc(/C=C(/Sc2nnc(-c3ccc(Cl)cc3)o2)C(=O)O)cc1
→ 1, -1, 7, 17, ., -13, 12, i
C=CCN=C(NC#N)SCC(=O)NCc1ccccc1
→ -26, 8, 23, ., -23, -2, -2, i
CO/N=C\Cc1oc(=O)c(NC(=O)c2ccccc2)cc1C(=O)OC
→ -24, 5, 108*, ., -9, 81*, -10, i
CCN(CC)S(=O)(=O)c1cccc(NC(=O)CN2C(=O)NC3(CCC(C)CC3)C2=O)c1 (centres undefined)
→ 10, 9, ., 11, -2, ., ., .
CCCCn1c(N)c(N(CC(C)C)C(=O)c2cnccn2)c(=O)[nH]c1=O
→ 1, 6, ., ., -10, ., -14, i
OCCC1CN(Cc2ccc(F)cc2Cl)CCN1CCc1ccccc1 (centres undefined)
→ 1, 1, -9, 20, -13, 8, 27, i
COc1cccc(NC(=O)CSc2nnc(C3CCCCC3)n2N)c1
→ 4, 3, ., ., -3, ., -7, .
COc1ccc(C2C(C(N)=O)=C(C)Nc3nc(-c4cccc(Cl)c4)nn32)cc1OC (centres undefined)
→ 8, 3, -3, 58*, 2, 5, -21, i
Cc1ccc(S(=O)(=O)N2CCCCCC2)cc1C(=O)Nc1cccnc1
→ 0, -1, 6, 11, 4, 28, -15, i
O=C(CSc1nnc(NC(=O)C2CC2)s1)Nc1ccc(F)cc1
→ 2, 0, -6, 5, -16, -16, ., i
C=CCn1c(COc2ccc(Cl)cc2)nnc1SCc1ccc(C#N)cc1
→ -2, -11, 0, 58*, -8, -3, 21, i
CN(C)S(=O)(=O)N1CCC(Oc2ccc(C(=O)NCCc3cscn3)cc2)CC1
→ -1, -2, 2, -24, -5, 0, -10, i
CCCn1c(NC(=O)c2cccc(S(=O)(=O)N3CCCC3)c2)nc2ccccc21
→ -16, -25, -5, 132*, -18, 1, ., i
COc1ccc(Oc2nc(-c3ccccc3)ncc2C(=O)O)cc1
→ 4, 4, -13, 1, ., -3, ., i
Fc1cccc(CN(C2=NCCN2)c2c(Cl)cccc2Cl)c1
→ -3, -7, ., -23, -10, ., -15, .

Continuation:
Every second line gives: MT1-MMP act inh, MT1-MMP act inh RFP, PABP polyA inh, HIV Env fusion, Yeast UUG start, eIF4H FP inh, CSC inhib, Rce1 inhib
COC(=O)c1ccccc1NC(=O)CCCn1nc([N+](=O)[O-])cc1C
→ -2, 1, -9, 8, -8, -4, -8, i
CCN(CC)S(=O)(=O)c1ccc2c(c1)nc(SCC(=O)N(C)C1CCS(=O)(=O)C1)n2CC (centres undefined)
→ 0, 5, ., 7, ., ., 6, i
CS(=O)(=O)Nc1ccccc1N=C(c1ccccc1)c1ccccc1
→ 3, 3, -6, -7, -5, 1, -12, i
CCC(=O)c1cn(CC(=O)NCc2cccnc2)c2ccccc12
→ -6, -3, -14, ., -26, -6, ., i
CCOC(=O)c1sc(NC(=O)c2ccc(OC(C)=O)cc2)nc1C
→ 3, -4, 5, -61, ., 0, 61, i
CCOC(=O)/C(C#N)=C\c1cccnc1
→ -3, 2, -3, 11, ., -5, ., i
Cc1nc(C(=O)N2CCCC(C(=O)c3ccc(Cl)cc3)C2)cs1 (centres undefined)
→ 0, -2, 1, 3, ., 6, 1, i
CCCCNC(=O)/C=C/c1ccc(OC)c(Br)c1
→ 8, 1, -9, -10, -6, -7, 1, i
COC(=O)c1ccc(C(=O)OC)c(NC(=S)N2CCC(N3CCCCC3)CC2)c1
→ -2, 3, -11, -15, ., -9, -21, i
Cc1cc(C)n(CC(=O)c2cccc(N)c2)n1
→ 0, -5, -2, 8, -4, -6, -13, i
COCCCNC(=O)C(F)(F)C(F)(F)C(=O)NCCCOC
→ -1, 0, -3, ., ., -1, -5, i
CCOC(=O)CNC(=O)C1c2cc(OC)c(OC)cc2C(=O)N(C)C1c1ccccc1F (centres undefined)
→ 2, -1, -5, -3, 5, 4, -18, .
Cc1ccc2nc(-c3ccc(NC(=O)C(C)N4C(=O)c5ccccc5C4=O)cc3)sc2c1 (centres undefined)
→ 1, 1, -4, -19, -11, -6, 8, i
CC(C)Oc1ccc(CNC(=O)CCC(=O)N2CCSc3ccccc32)cc1
→ 4, 9, 5, 5, -6, -1, -9, i
CCOC(=O)c1c(NC(=O)c2ccccc2C)sc2c1CC(C)(C)OC2
→ -2, -7, 1, ., -16, -4, 31, i
COc1ccc(C2=NOC(C(=O)NCc3ccccc3)C2)cc1 (centres undefined)
→ 7, -8, 5, ., -15, 8, 64, i
COC(=O)c1ccc(COc2ncnc3ccccc23)o1
→ 4, 6, -8, ?, -14, -6, -17, i
O=C(Nn1c(SCc2ccccc2F)nc2ccsc2c1=O)c1ccccc1
→ -2, 2, -3, ., -9, -4, ., i
O=[N+]([O-])c1ccc(-n2nncc2-c2ccccc2)cc1
→ 5, -1, 7, 8, -22, -1, 2, i
CCc1nnc(NC(=O)CSc2nc(C3CCCCC3)nc3ccccc23)s1
→ -1, -1, -9, 27, -21, 9, -19, i
O=C(O)c1cc(N=Nc2c(O)[nH]c3ccc([N+](=O)[O-])cc23)ccc1Cl
→ 0, 2, 40, -8, ., 0, -8, i
COc1ccccc1CCNCc1ccc(OC)c(OCc2ccccc2)c1
→ -1, -8, 0, 74*, 4, 3, -3, i
CCOc1cc(C(=O)OCC(=O)N(C)c2ccccc2)cc(OCC)c1OCC
→ 1, 2, 7, 25, 2, -1, -13, i
Cc1ccc(NC(=O)c2ncn(CCCNCc3ccc4c(c3)OCO4)n2)cc1C
→ 3, 1, ., -59, -13, ., ., .
Cc1cc(C)nc(NC(=NCCc2c[nH]c3ccccc23)NC(=O)Nc2cccc([N+](=O)[O-])c2)n1
→ 8, -7, -13, -8, ., -1, -3, i
COc1cc2cc(CN(CCc3cccc(C)c3)C(=S)NCCCN3CCOCC3)c(=O)[nH]c2cc1OC
→ -1, -1, -12, -4, -16, -5, -3, i
CCN=C1SC(C(=O)Nc2cc(Cl)cc(Cl)c2)CC(=O)N1CC (centres undefined)
→ -1, 1, -2, -14, -6, 2, -12, i
COC(=O)c1ccc(CSc2nnc(N)s2)o1
→ 7, 8, 0, 1, ., 2, -14, i
